Compound activity (PubChem BioAssay)
T cruzi repl: inhibitors of intracellular T. cruzi growth, primary screen, luminescence, NIH3T3 host cells | T. cruzi beta-gal in NIH3T3, 90 h | inhibition, % (no concentration beside the values) | hit rate 1.4% among 300,000 | AID 1885, 2009;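 active = mean inhibition across valid replicates above about 55%, limit read from the data; inconclusive = mean below that limit but half or more replicates reach it; inactive = mean below it, under half of replicates reach it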;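 note: signal also drops with host cell toxicity which is not excluded here; 0% = plate median of DMSO wells and 100% = zero luminescence signal; higher percent means less beta-gal luminescence so fewer parasites; stock transfer was 50 nL into about 50 µL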
Beta cell apopt: inhibitors of cytokine-induced beta cell apoptosis, primary screen, luminescence; INS-1E cytokine-induced death, ATP luminescence, 48 h; percent of positive-control rescue, neutral wells zero; protection from apoptosis, % (no concentration beside the values); hit rate 0.8% among 300,000; AID 435005, 2010;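 active = all replicates at 75% or more, or half of them and the mean; inconclusive = half reach 75% but not the mean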;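 note: 0% = cytokine-treated negative control wells and 100% = positive control rescue; higher means more ATP so stronger rescue from cytokine killing; wells of about 40 µL received 100 nL stock; the first replicate is given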
A1 inh: caspase 3/7 activation in MEF A1-2A-BIM cells, primary screen, A1 inhibitor project, cell-based, luminescence, HTS. hit rate 0.066% among 330,000. caspase activation, % (concentration not given with the values). Caspase-Glo 3/7 luminescence, 3 h; percent of clofoctol response, vehicle zero;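 active = over half of replicate activation scores above 10%, or exactly half above 10 with the replicate mean above 10; inconclusive = replicate mean below 10 yet half the replicates above 10; inactive = over half of replicates below 10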;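 note: wells of about 30 µL received 50 nL stock; many hits fall short of the cut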
B2AR ag: beta2AR agonists driving receptor internalization, primary screen, cell-based, FAP fluorogen, flow cytometry. Beta-2 adrenergic receptor (Homo sapiens), P07550. Am2.2-beta2AR cells; reference of the scale not given here. response, % (test concentration not listed). hit rate 0.43% among 340,000. AID 504454, 2011;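 active = response above a set limit, near 3 SD of response in nonfluorescent compounds, cut at about 42% in these data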;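 note: stock transfer was 100 nL into about 11 µL; a reference agonist was the positive control; negative values mostly stem from fluorescent compounds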
LANA-H2B inh: blockers of LANA interaction with H2A/H2B – biochemical, FP readout, HTS, primary screen; inhibition, % (test concentration not listed); cell-free LANA-H2A/H2B peptide, fluorescence polarization; hit rate 0.6% among 320,000; Protein LANA1 (Human herpesvirus 8 type P (isolate GK18)), Q9QR71; in the data active = inhibition mostly above about 10%, no sharp cut-off; inactive = mostly below about 6.7%;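 note: stock transfer was 7.5 nL into about 10 µL; 0% = median of vehicle wells and 100% = median of positive control wells; one replicate is shown; the record names a cut of 25% in any replicate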
Target sequence (Q9QR71 whole entry, looked up): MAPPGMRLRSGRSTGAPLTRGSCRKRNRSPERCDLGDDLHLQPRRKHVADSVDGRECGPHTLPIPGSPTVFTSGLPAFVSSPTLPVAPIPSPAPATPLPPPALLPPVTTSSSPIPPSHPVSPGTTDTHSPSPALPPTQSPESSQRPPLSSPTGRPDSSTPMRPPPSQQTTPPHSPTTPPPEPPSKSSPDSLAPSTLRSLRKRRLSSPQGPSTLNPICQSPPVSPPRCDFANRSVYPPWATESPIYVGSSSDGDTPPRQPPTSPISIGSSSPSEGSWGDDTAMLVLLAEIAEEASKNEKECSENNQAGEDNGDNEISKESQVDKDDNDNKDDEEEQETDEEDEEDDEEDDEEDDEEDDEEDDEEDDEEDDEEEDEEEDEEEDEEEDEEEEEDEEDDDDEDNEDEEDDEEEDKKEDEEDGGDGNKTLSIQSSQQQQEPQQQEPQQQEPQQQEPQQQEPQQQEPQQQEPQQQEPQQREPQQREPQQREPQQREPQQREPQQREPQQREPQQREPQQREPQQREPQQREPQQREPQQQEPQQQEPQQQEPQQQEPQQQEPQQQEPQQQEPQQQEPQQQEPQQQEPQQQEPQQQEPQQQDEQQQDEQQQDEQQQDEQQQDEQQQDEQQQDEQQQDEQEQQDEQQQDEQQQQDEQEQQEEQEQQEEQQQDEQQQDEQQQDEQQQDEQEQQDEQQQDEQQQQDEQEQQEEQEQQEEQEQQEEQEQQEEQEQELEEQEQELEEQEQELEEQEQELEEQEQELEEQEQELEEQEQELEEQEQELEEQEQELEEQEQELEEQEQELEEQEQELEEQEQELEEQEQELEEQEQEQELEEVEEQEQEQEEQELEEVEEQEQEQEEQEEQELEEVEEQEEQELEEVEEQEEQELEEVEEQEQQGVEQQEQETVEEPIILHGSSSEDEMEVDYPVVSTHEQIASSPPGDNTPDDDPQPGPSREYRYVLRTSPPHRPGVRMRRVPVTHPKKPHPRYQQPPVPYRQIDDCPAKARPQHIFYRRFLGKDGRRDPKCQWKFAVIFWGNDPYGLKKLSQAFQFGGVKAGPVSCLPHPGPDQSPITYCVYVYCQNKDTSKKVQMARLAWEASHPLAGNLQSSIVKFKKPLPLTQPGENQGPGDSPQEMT
Calb FLC: C. albicans growth inhibition with fluconazole, primary screen, CaCi-2 strain, Alamar Blue fluorescence | C. albicans CaCi-2 (fluconazole-resistant clinical isolate) + fluconazole, 48 h | growth inhibition, % (test concentration not listed) | hit rate 0.57% among 300,000 | AID 1979, 2009;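 active = most replicates above 75%; inconclusive = exactly half above 75%; inactive = most below 75%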;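 note: all wells also contain fluconazole at 8 µg/ml as a sub-toxic cotreatment; 0% = median of DMSO wells and 100% = median of geldanamycin control wells; wells of about 8 µL received 7.5 nL stock; the first replicate is given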
rRNA inh HTS: reduced GFP signal of wild-type E. coli, primary screen, bacterial rRNA inhibitor project, GFP/RFP fluorescence, OD600, single point; E. coli WT GFP vs humanized-ribosome RFP mutants, 24 h; stronger effect = lower value; DMSO median 0, no signal -100; GFP signal change (wild-type ribosome), % (test concentration not listed); hit rate 1.6% among 350,000; AID 720706, 2013;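 active = significant combined selectivity score with lowered wild-type GFP, culture density cut under 30%, mutant RFP and density less affected; inactive = any of these conditions unmet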; note: one replicate is shown; some compounds called inactive have numbers as strong as hits
ALR H2O2 inh: inhibitors of human ALR sulfhydryl oxidase, primary screen, biochemical, H2O2 detection, HRP-luminol luminescence, single point; FAD-linked sulfhydryl oxidase ALR (Homo sapiens), P55789; purified ALR, DTT oxidation; inhibition, % (no concentration beside the values); hit rate 3.8% among 290,000;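 active = mean and each replicate at 75% or more; inconclusive = only one of the two met; inactive = neither met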;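 note: stock transfer was 7.5 nL into about 7.5 µL; 0% = neutral wells and 100% = wells with inactivated enzyme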
rRNA inh HTS OD600: further read-out of rRNA inh HTS, marked with its call; OD600 change, %; measured here: OD600 growth;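 optical density of the mix in the first replicate; 0 = DMSO median and -100 = no signal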
rRNA inh HTS RFP: also measured in rRNA inh HTS; calls as there; RFP signal change, %; measured here: RFP humanized mutant strains;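 first replicate; 0 = DMSO median and -100 = no signal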
Numbers without * were called inactive; ? = inconclusive; / = no result given. A portion of the library. The share of hits here may be higher or lower than overall.

SMILES	T cruzi repl	Beta cell apopt	A1 inh	B2AR ag	LANA-H2B inh	Calb FLC	rRNA inh HTS	rRNA inh HTS OD600	rRNA inh HTS RFP	ALR H2O2 inh
COc1ccc(SCCC(=O)NCc2ccncc2)cc1	/	-2	-0.3	1	6.9	-3	0	-1	-1.4	-20
COc1ccc(CNC(=O)CN(c2ccc(OC)cc2)S(=O)(=O)c2c(C)nn(C)c2C)cc1	17	3	-1.2	-4	2.7	-10	/	/	/	-6
c1ccc2c(c1)NC1(CCCC1)n1c-2nc2ccccc21	5	-1	-3.1	-5	-0.3	-22	-1	-1	0.2	39
Cc1nc(NC2=NCN(CCCN3CCOCC3)CN2)nc2c(C)cccc12	/	4	-0.1	16	-1.3	/	/	/	/	-35
CCCc1nc2c(c(=O)c3ccccc3n2C)c(=O)n1C1CCCCCC1	22	66	0.1	16	1.1	-10	/	/	/	-25
CCN(CC)S(=O)(=O)c1cccc(NC(=O)COC(=O)c2cccs2)c1	-12	-10	-1.0	-5	0.4	13	-4	4	0.1	-4
O=C(Nc1cccc2[nH]ncc12)NS(=O)(=O)c1ccccc1	-3	0	1.1	2	-0.8	18	-6	9	24	97*
CC(C)N(CCO)Cc1nc(C(c2ccccc2)c2ccccc2)no1	-4	/	-0.6	6	3.7	2	3	14	-2.1	1
CCOC(=O)c1nc(C)sc1-c1ccnn1S(=O)(=O)c1ccc(Cl)cc1Cl	/	-3	-0.1	-3	3.0	-2	-29*	-11*	2.2*	-6
Cc1ccc(CNC(=O)CCC(=O)c2cccs2)cc1	-5	-6	-0.6	-5	-2.8	-1	/	/	/	-4
Cc1noc(C)c1C(=O)OCC(=O)NC(c1ccccc1)c1ccccc1	-3	-5	-0.3	-2	-6.5	27	/	/	/	1
CCc1ccc(S(=O)(=O)Nc2ccc(O)c3ccccc23)cc1	4	?	1.3	7	-0.5	42	-10	-14	-5.1	-5
O=C(/C=C/c1ccccc1)NC(=S)NNC(=O)Cc1cccs1	-8	12	-0.6	4	-4.7	-9	/	/	/	-12
Nc1nc(-c2ccc3c(c2)CCC(=O)N3)cs1	5	-3	-0.3	3	-0.5	7	3	-2	-4.8	-117
CCc1c(C)nc(N)n2c(SCC(=O)NC3CCCCC3)nnc12	-1	3	0.5	-10	0.4	-1	4	1	-3.5	4
CCS(=O)(=O)N1Cc2ccccc2CC1C(=O)Nc1nnc(C2CC2)s1 (centres undefined)	-8	-1	0.4	-6	3.4	-7	7	-2	3.5	-4
CCOC(=O)C(=NCCCN(C)C)NNc1cc(C(F)(F)F)ccc1Cl	-6	1	0.1	14	1.5	-41	26	2	3.9	51
COc1ccc(NC(=O)c2c(C)nn(Cc3ccccc3)c2C)cc1S(=O)(=O)N(C)C	14	2	0.9	12	2.3	-7	2	9	2.2	/
CCCc1ccc(C(=O)N2CCN(c3ccccc3OCC)CC2)cc1	18	0	0.0	-4	-1.8	6	-54	-80	-22	4
COc1ccc2c(c1)CCNC2Cc1ccc(OC)c(O)c1 (centres undefined)	-6	-7	2.3	/	0.6	-4	/	/	/	22
COc1cccc(C2C(C(C)=O)=C(C)Nc3ncnn32)c1 (centres undefined)	-12	5	-0.5	16	-2.4	-3	2	4	-3.2	12
N#CC1=C(N)Oc2cc(N)ccc2C1c1cccc(Br)c1 (centres undefined)	4	3	0.0	10	7.0	-4	-15	-10	14	-15
Cc1cc(C(=O)N2CCN(C/C=C/c3ccccc3)CC2)cs1	-6	-4	-1.0	-13	0.2	-10	-21	-15	-9.8	-9
CN(NS(=O)(=O)c1ccc(Cl)cc1)c1ncc(C(F)(F)F)cc1Cl	5	-21	1.0	-5	-7.2	5	-13	-13	-5.0	-5
Cc1ccc(NC(=O)Cn2sc3nc(C)cc(C)c3c2=O)c(Cl)c1	?	-3	0.4	-16	-0.9	7	10	3	4.8	-4
CCOc1cccc(CN(CC)CC2CCCN(CCc3cccc(OC)c3)C2)c1O (centres undefined)	48	-5	-0.5	7	-3.8	-2	-5	-13	1.2	63
CCc1ccc2[nH]c3nc(SCc4nnc(-c5ccc(C)cc5)o4)nnc3c2c1	1	1	0.4	-13	-0.2	3	/	/	/	-8
O=C(NCCc1ccc(Cl)cc1)C1CCC(CNc2c(N3CCCCC3)c(=O)c2=O)CC1 (centres undefined)	-11	/	-0.5	1	-0.2	1	9	0	-7.5	-5
CCOC(=O)c1ccc(S(=O)(=O)Nc2nc3cc(S(=O)(=O)NC4=NCCCCC4)ccc3s2)cc1	10	2	-0.9	6	0.3	11	-12	-14	0.9	97*
CC[C@H](C)[C@H](NC(=O)c1ccc(Cl)cc1)C(=O)OCC(=O)c1ccc2c(c1)NC(=O)CO2	17	29	0.7	-13	0.8	-24	/	/	/	-18
Cc1ccc(N(CC(=O)NC2CC3CCC2C3)S(C)(=O)=O)cc1C (centres undefined)	-11	1	0.8	12	-5.1	-22	/	/	/	-7
CCOC(=O)c1ccc(NC(=O)c2sc3nc4n(c(=O)c3c2C)CCC4)cc1	1	/	-1.9	2	1.1	23	-5	-9	-4.3	-9
COc1ccc(S(=O)(=O)Nc2ccc(F)cc2)c(C)c1C	3	1	0.7	/	5.3	12	/	/	/	-7
CCOC(=O)c1cc(NC(=O)SCC(=O)O)c(C)nc1C	3	-3	0.3	2	1.6	-2	/	/	/	13
CN(C(=O)COc1ccccc1)c1nnc(-c2cccnc2)s1	-15	-8	0.0	-9	-0.7	-5	/	/	/	3
C[C@@H](C(=O)N1CCN(Cc2ccc3c(c2)OCO3)CC1)n1nnc2ccccc2c1=O	-16	-2	0.4	13	-4.3	-21	7	1	-1.4	0
Cc1ccc(NC(=S)N2CCN(Cc3ccc4c(c3)OCO4)CC2)c(C)c1	-10	-10	-1.1	-2	2.2	-4	-7	-9	-16	18
O=C(CCCNC(=O)c1ccc(Cl)cc1)Nc1nccs1	/	0	1.1	-2	-3.3	/	3	13	0.1	-5
Cn1c(CNC(=O)c2ccc3c(c2)OCO3)nnc1SCC(=O)Nc1ccc(F)cc1F	2	-2	-0.2	-3	0.7	0	4	8	0.6	-11
CCN(CC)S(=O)(=O)c1ccc2c(c1)nc(CCC(=O)OCC(=O)Nc1cc(OC)cc(OC)c1)n2C	7	-3	0.8	-3	-4.3	3	15	-2	-5.0	-12
CCCCOc1ccc(C(=O)Nc2ccc(N3CCN(C)CC3)cc2)cc1	29	9	0.8	17	2.1	-24	/	/	/	4
Cc1noc(C)c1CSCC(=O)N(C)CC(=O)Nc1ccc(F)cc1	-3	0	0.7	2	-3.8	-1	8	7	0.2	-4
CCc1nn2c(N(C)CCO)cc(C)nc2c1-c1ccc(F)cc1	-3	-1	0.4	1	0.5	-3	6	-3	-12	4
COc1ccc(Nc2nc(NCc3ccco3)nc(N/N=C/c3ccc(O)cc3)n2)cc1	10	7	0.7	18	0.1	-5	-8	-16	8.0	42
CC(=O)Nc1ccc(S(=O)(=O)NCCC(=O)NCCc2ccc(F)cc2)cc1	-41	1	2.2	3	-1.3	3	/	/	/	-3
Cn1c(Oc2ccccc2)c(C=O)c2ccccc21	15	-10	-0.2	-2	-0.2	13	/	/	/	3
Cc1ccc(-c2nnc(Nc3ccc4c(c3)OCO4)c3ccccc23)cc1S(=O)(=O)NC(C)C	38	12	-1.3	4	-0.8	7	/	/	/	-1
O=C(/C=C/c1cccc([N+](=O)[O-])c1)NCc1ccccc1	-5	-3	0.3	0	-0.2	11	12	11	0.6	19
Nc1nc(Nc2ccccc2F)nc(NCc2ccco2)c1[N+](=O)[O-]	-12	/	-1.6	11	7.7	5	-20*	-10.0*	1.7*	/
CCOC(=O)C1(CCCc2ccccc2)CCN(C(=O)CCC2=NNC(=O)CC2)CC1	11	-4	0.0	-3	-6.1	1	3	3	1.5	-1

Complete entries, looked up by structure. Order of screens: T cruzi repl, Beta cell apopt, A1 inh, B2AR ag, LANA-H2B inh, Calb FLC, rRNA inh HTS, rRNA inh HTS OD600, rRNA inh HTS RFP, ALR H2O2 inh
COc1ccc(CNC(=O)CN(c2ccc(OC)cc2)S(=O)(=O)c2c(C)nn(C)c2C)cc1 across the screens: 17, 3, -1.2, -4, 2.7, -10, /, /, /, -6
CCN(CC)S(=O)(=O)c1cccc(NC(=O)COC(=O)c2cccs2)c1 across the screens: -12, -10, -1.0, -5, 0.4, 13, -4, 4, 0.1, -4
CCc1ccc(S(=O)(=O)Nc2ccc(O)c3ccccc23)cc1 across the screens: 4, ?, 1.3, 7, -0.5, 42, -10, -14, -5.1, -5
CCOc1cccc(CN(CC)CC2CCCN(CCc3cccc(OC)c3)C2)c1O (centres undefined) across the screens: 48, -5, -0.5, 7, -3.8, -2, -5, -13, 1.2, 63
CCOC(=O)C(=NCCCN(C)C)NNc1cc(C(F)(F)F)ccc1Cl across the screens: -6, 1, 0.1, 14, 1.5, -41, 26, 2, 3.9, 51

Three compounds already listed, ordered by the number in ALR H2O2 inh, highest first.
structure,ALR H2O2 inh
COc1ccc(Nc2nc(NCc3ccco3)nc(N/N=C/c3ccc(O)cc3)n2)cc1,42
CCCCOc1ccc(C(=O)Nc2ccc(N3CCN(C)CC3)cc2)cc1,4
CCOC(=O)C1(CCCc2ccccc2)CCN(C(=O)CCC2=NNC(=O)CC2)CC1,-1

New compounds follow.
SMILES	T cruzi repl	Beta cell apopt	A1 inh	B2AR ag	LANA-H2B inh	Calb FLC	rRNA inh HTS	rRNA inh HTS OD600	rRNA inh HTS RFP	ALR H2O2 inh
Cc1cc2nc(-c3ccc4c(c3)CCC4)ccn2n1	3	-2	-0.1	-13	4.1	-24	-31*	17*	-1.5*	18
Cc1nc(S(=O)(=O)Cc2ccc(Cl)cc2)nc2c1CCC2	3	3	0.7	-1	-3.7	19	8	10	2.2	13
COc1ccc(O[C@@H]2O[C@H](COC(C)=O)[C@@H](OC(C)=O)[C@H](OC(C)=O)[C@H]2NC(C)=O)cc1	6	-3	-0.3	-1	-1.7	8	2	0	-0.6	-6
Cc1ccc(-n2cccc2C(=O)NS(=O)(=O)c2ccc(C)cc2)cc1	2	1	-0.7	7	-3.5	-17	11	2	-2.6	1
Cc1c(NC(=O)C(C)NCC2CCCO2)c(=O)n(-c2ccccc2)n1C (centres undefined)	-17	0	0.3	2	3.1	-1	/	/	/	-19
NC(=O)CC(NC(=O)c1ccccc1)C(=O)O (centres undefined)	3	-5	-0.9	-5	-3.7	6	11	21	18	-2
